TRPML1 agonist: agonists of human TRPML1 channel; Q9GZU1; TRPML1-expressing cells, Ca2+ dye fluorescence, FDSS; host cell line not named in the record; reference of the full effect not given here; activation, % (no concentration beside the values); 410,000 compounds, 0.12% hits; AID 624414; in the data active = activation above about 50%; inconclusive = about 30% to 50%; inactive = below about 30%; note: 0% is about no effect; the text of the record puts the active cut at 80%
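Tet-induced TRPML1-DL cells, 1,500 per well, cultured overnight, were loaded with a no-wash Ca2+ dye for 45–90 min. Calcium fluorescence was recorded on the FDSS for 110 s after compound addition, before the EC80 agonist (4 uM 54-4) was added.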
D2 agonist: human D2 receptor agonism in beta-arrestin assay | P14416 | DiscoveRx PathHunter D2 beta-arrestin, luminescence, 90 min; 100% = 57 uM dopamine signal | activation, % (test concentration not listed) | 360,000 compounds, 0.084% hits; in the data active = activation above about 40%; inconclusive = about 15% to 40%; inactive = below about 15%; note: compound concentration not given in the record; the text of the record calls up to 30% inactive
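DiscoveRx PathHunter D2 beta-arrestin cells (2,100/well) attached overnight, then compound-stimulated 90 min at 37 C in HBSS/10 mM HEPES/0.1% Tween-20 buffer; beta-galactosidase complementation read by luminescence after 1 h at ambient temperature. Dopamine 57 uM final (EC100) as control.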
PINK1 expr mod: modulators of PINK1 expression | PINK1 immunofluorescence, high-content cytometry, 24 h | Potency, µM (titrated, usually from 76.6 µM), for inactives: at the top dose activation (PINK1 increase), actives largely listed as activators | 410,000 compounds, 0.2% hits | AID 624263; active = well fitted activation curve with a large enough effect; inconclusive = small, poorly fitted or top-dose-only effect; inactive = flat fitted curve, though single readings scatter; cell line not stated here;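 note: potency is the fitted concentration of half-maximal effect; % of control where 0% means no effect; nearly all actives have a fitted effect of over 65% in size; a mitochondrial uncoupler was the plate control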
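Compound titrations (5 concentrations, 24 h) on a stable cell line; DMSO and CCCP controls. Endpoint: fixed-cell PINK1 immunofluorescence with mitochondrial, cell and nuclear markers, scanned by microplate cytometer.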
D2 PAM: positive allosteric modulators of human D2 dopamine receptor; 360,000 compounds, 0.23% hits; AID 624464; DiscoveRx D2 beta-arrestin cells, luminescence, 90 min; 100% = 57 uM dopamine signal; P14416; potentiation, % (test concentration not listed); active = potentiation of 50% or more; inconclusive = 30% to 50%; inactive = 30% or less;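 note: compound concentration not given in the record; tested on top of an EC20 dose of dopamine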
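PathHunter beta-arrestin assay in DiscoveRx D2 cells. Compounds were added with an EC20 of dopamine (50 nM final) for 90 min at 37 deg C. Luminescence was read 1 h after detection reagent, with 57 uM dopamine as the EC100 control.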
Six1-Eya2 blk: inhibitors of human Six1/Eya2 interaction | activity change, % (concentration not given with the values) | 360,000 compounds, 0.56% hits | AlphaScreen GST-Six1/His-Eya2 binding, biochemical; active compounds read low; control for the full effect not named in the record | Q15475+O00167; in the data active = activity change below about -65%; inconclusive = about -30% to -65%; inactive = above about -30%; note: % is set by controls: 0 for no effect and ±100 for the full control effect
Target sequence (O00167 whole entry, looked up): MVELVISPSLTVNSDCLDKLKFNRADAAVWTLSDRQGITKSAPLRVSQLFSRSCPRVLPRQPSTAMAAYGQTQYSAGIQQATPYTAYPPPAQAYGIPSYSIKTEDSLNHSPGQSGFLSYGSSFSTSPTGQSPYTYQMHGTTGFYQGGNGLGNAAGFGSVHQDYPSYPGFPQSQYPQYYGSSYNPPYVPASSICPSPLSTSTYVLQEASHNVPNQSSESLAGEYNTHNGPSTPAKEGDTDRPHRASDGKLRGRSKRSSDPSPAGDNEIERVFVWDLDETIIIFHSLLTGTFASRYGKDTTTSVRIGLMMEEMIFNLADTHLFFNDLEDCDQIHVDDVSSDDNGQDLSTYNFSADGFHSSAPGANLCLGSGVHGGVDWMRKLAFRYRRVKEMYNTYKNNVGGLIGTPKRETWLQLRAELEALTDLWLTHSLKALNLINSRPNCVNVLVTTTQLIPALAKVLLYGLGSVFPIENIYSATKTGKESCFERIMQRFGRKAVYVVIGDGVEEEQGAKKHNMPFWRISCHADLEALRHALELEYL
Target sequence (Q15475 whole entry, looked up): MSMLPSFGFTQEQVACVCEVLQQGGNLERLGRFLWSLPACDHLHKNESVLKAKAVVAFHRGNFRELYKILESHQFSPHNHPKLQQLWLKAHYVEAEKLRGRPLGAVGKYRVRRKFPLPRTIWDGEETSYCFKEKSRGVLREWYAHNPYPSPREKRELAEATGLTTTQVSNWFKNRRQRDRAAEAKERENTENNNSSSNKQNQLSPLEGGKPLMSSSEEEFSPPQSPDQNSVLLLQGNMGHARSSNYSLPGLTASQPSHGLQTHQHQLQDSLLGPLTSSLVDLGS
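AlphaScreen luminescence read after one hour at 37 °C in darkness. Pin-transferred compounds met GST-Six1 and His-Eya2 protein (5X stock 250 nM/500 nM) plus glutathione donor and Ni-chelate acceptor beads (5X, 50 ug/mL).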
TRPML1 inh: inhibitors of human TRPML1 channel; Q9GZU1; activity change, negative = inhibition, % (test concentration not listed); 390,000 compounds, 0.02% hits; TRPML1-inducible cells, Ca2+ dye fluorescence, FDSS; active compounds read low; inhibition of EC80 agonist-evoked calcium signal; in the data active means activity change below about -50%; inconclusive means about -30% to -50%; inactive means above about -30%;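 note: stimulus is agonist 54-4 at its EC80 concentration; % is set by controls: 0 for no effect and ±100 for the full control effect; compound concentration not given in the record; the text of the record puts the active cut at -80%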
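Calcium fluorescence in TRPML1-DL cells induced overnight with Tet: a 110 s read after compound pin addition, then a 110 s antagonist read after challenge with 54-4 at 4 uM final (EC80).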
* = called active by the depositor; u = inconclusive; x = not tested or not shown; & = joins results of further samples; [ ] = another dose, or the depositor's remark.

SMILES	TRPML1 agonist	D2 agonist	PINK1 expr mod	D2 PAM	Six1-Eya2 blk	TRPML1 inh
O=C(NCCCn1ccnc1)c1cccc(Br)c1	1.3	6.0	1.4%	-10	4	35
COc1ccc(C)c(NC(=O)NCCc2cnc[nH]2)c1	1.0	0.3	2.3%	-27	-1	-9
COC(=O)Nc1nnc(-c2ccccc2OC)s1	0.1	-3.6	-0.1%	3	-24	-3
CC1(C)C(=O)Nc2ccccc2N1C(=O)CN1C(=O)C(=O)N(C2CCCC2)C1=O	-0.5	1.0	3.7%	-3	-1	44
CC(=O)Nc1ccc(S(=O)(=O)N2CCSC2c2ccc(Cl)cc2)cc1 (stereo not given)	2.2	-1.5	0.5%	13	-1	20
COc1cc(NC(=O)COc2ccc(-n3ccnc3)cc2)cc(OC)c1	1.9	-5.2	0.2%	-7	9	-1
CCOC(=O)c1c(NC(=O)c2cc(C)on2)c2cc([N+](=O)[O-])ccc2n1C	-1.0	-8.0	3.3%	-19	-27	15
COc1cccc(NC(=O)Cn2nnc(C(=O)NCc3cccs3)c2N)c1	0.6&-0.6	2.5	0.9%&0.4%	-13	2	9&12
COc1ccc(S(=O)(=O)NC2CCCCC2)cc1-n1cnnn1	0.5	-5.2	-0.3%	1	5	-4
CCc1cccc(NC(=O)CN(C)C2=NS(=O)(=O)c3ccccc32)c1	0.2	-4.2	0.6%	-6	6	43
CCN(CC(=O)Nc1ccccc1C(F)(F)F)C(=O)c1cccc(S(=O)(=O)N2CCN(C)CC2)c1	0.8	-3.6	-2.2%	-13	9	-14
C/C(=C\C(=O)C(F)(F)F)Nc1cc(C)cc(C)c1	-0.6	-1.2	-1.9%	2	9	-15

2 entries from above, as a markdown table:
| smiles | TRPML1 agonist | D2 agonist | PINK1 expr mod | D2 PAM | Six1-Eya2 blk | TRPML1 inh |
| --- | --- | --- | --- | --- | --- | --- |
| CCN(CC(=O)Nc1ccccc1C(F)(F)F)C(=O)c1cccc(S(=O)(=O)N2CCN(C)CC2)c1 | 0.8 | -3.6 | -2.2% | -13 | 9 | -14 |
| COc1ccc(C)c(NC(=O)NCCc2cnc[nH]2)c1 | 1.0 | 0.3 | 2.3% | -27 | -1 | -9 |

(cont.)
SMILES	TRPML1 agonist	D2 agonist	PINK1 expr mod	D2 PAM	Six1-Eya2 blk	TRPML1 inh
CN(C)CCCN(C(=O)COc1ccc(Cl)cc1)c1nc2cc3c(cc2s1)OCCO3	0.1	-3.4	-1.8%	-21	-7	7
CCOC(=O)c1c(C)[nH]c(C)c1S(=O)(=O)N1CCCC(C(=O)Nc2ccc(F)cc2F)C1 (stereo not given)	-1.2	x	-0.7%	x	x	-6
CC(C)Oc1ccc(CCN=C(N)N=C(N)N)cc1Cl	0.3	-2.8	-1.7%	-10	9	0
COc1ccc(C(=O)NCc2cccnc2)cc1Br	-0.4	-1.8	-1.3%	-7	3	12
O=c1[nH]c(NC2CCCCC2)nnc1Cc1ccccc1	1.1	0.8	-2.5%	10	-1	15
COC(=O)c1sccc1NC(=O)c1ccc(Cl)cc1	2.6	1.7	4.7%	-10	5	-2
CC1CCCC(NC(=O)COC(=O)c2ccc(Cl)nc2)C1C (stereo not given)	-0.4	2.9	0.7%	-3	1	-2
COC(=O)CSc1nc2cc(OC)ccc2cc1C#N	0.5	-1.3	7.8%	7	9	16
O=C(Cn1c(=O)c2ccccc2n(CC(=O)Nc2ccccc2F)c1=O)NCCc1ccccc1	-0.3	x	2.8%	x	x	-10
Cc1ccc(N2C(=O)CS/C2=N\C(=S)Nc2ccccc2)cc1	0.1	-3.5	9.6%	-3	7	-8
CC12CCC(C(=O)N3CCN(c4ncccn4)CC3)(c3nc4ccccc4nc31)C2(C)C (stereo not given)	0.0	-0.5	-0.1%	10	2	-11
Cc1ccc(NC(=O)CN(C)C(=O)c2ccc(OCc3c(C)noc3C)cc2)cc1	0.9	-1.3	3.5%	0	-2	2

Compound profiles (already shown). Order of screens: TRPML1 agonist | D2 agonist | PINK1 expr mod | D2 PAM | Six1-Eya2 blk | TRPML1 inh
COC(=O)Nc1nnc(-c2ccccc2OC)s1 across the screens: 0.1 | -3.6 | -0.1% | 3 | -24 | -3
CC1CCCC(NC(=O)COC(=O)c2ccc(Cl)nc2)C1C (stereo not given) across the screens: -0.4 | 2.9 | 0.7% | -3 | 1 | -2
C/C(=C\C(=O)C(F)(F)F)Nc1cc(C)cc(C)c1 across the screens: -0.6 | -1.2 | -1.9% | 2 | 9 | -15
COc1ccc(S(=O)(=O)NC2CCCCC2)cc1-n1cnnn1 across the screens: 0.5 | -5.2 | -0.3% | 1 | 5 | -4

(next part)
SMILES	TRPML1 agonist	D2 agonist	PINK1 expr mod	D2 PAM	Six1-Eya2 blk	TRPML1 inh
Cc1ccc(C(=O)N2CCC(C(=O)NCc3ccco3)CC2)cc1	0.8	-2.2	-1.0%	2	9	38
CCOC(=O)C1(Cc2cccc(F)c2)CCN(C(=O)c2cnccn2)CC1	-0.4	-3.4	1.2%	-3	7	-9
C=CCSc1nnc(NC(=O)c2cn(CC)c3nc(C)ccc3c2=O)s1	0.3	0.7	16%	3	-4	-1
CC(=O)c1ccc(NC(=O)c2cc(CC(C)C)on2)cc1	-0.1	-1.5	-0.6%	-2	0	-5
COC(=O)C(Cc1c[nH]c2ccccc12)NC(=O)COc1ccc(Cl)cc1Cl (stereo not given)	3.5	x	3.3%	x	x	-19
Cc1ccc(C(=O)Oc2ccc(C(=S)N3CCOCC3)cc2)cc1	x	1.1	0.6%	-9	u	x
COc1ccc(CSc2nnc(SCc3ccc([N+](=O)[O-])cc3)s2)cc1	3.5	-0.4	17%[38.3 µM]	-7	-5	6
O=C(Cc1c[nH]c2ccccc12)N/N=C/c1ccc(F)cc1	-0.6	-3.5	1.4%	4	-2	-2
CC(C)n1c(NCCO)nc2ccccc21	0.5	-0.3	-1.4%	-4	7	4
CC(=O)Nc1cccc(NC(=O)COC(=O)C2CC3CCCC(C2)C3=O)c1 (stereo not given)	-0.2	3.9	0.9%	-14	1	-9
CSc1ccc(CN(C)C(=O)c2cc(Cl)c3c(c2)OCCO3)cc1	0.2	-3.5	2.7%	-10	-1	31
N#CC(C#N)=C1C=C2C=C(N3CCCCCC3)CCC2CC1 (stereo not given)	100*	u	11µM*	10	1	-16
CCN(CC)S(=O)(=O)c1ccc(Cl)c(C(=O)OC)c1	-0.7	-0.2	9.9%[38.3 µM]	-9	1	16
O=C(NC1CCCC1)C1CCC(CNS(=O)(=O)c2cccs2)CC1 (stereo not given)	-0.3	-6.2	2.8%	-16	4	-11
COCCNC(=O)CCCn1c(SCC(=O)c2ccc(F)cc2)nc2c(sc3ccccc32)c1=O	0.1	x	-0.4%	x	x	-11
O=C(NC(=S)Nc1ccc2[nH]c(=O)[nH]c2c1)c1cc(Br)ccc1Cl	0.4	-2.1	-0.9%	-1	-7	-7
COc1ccc(Cl)cc1C(=O)Nc1ccccc1N1CCCCC1	0.7	0.4	0.7%	-8	22	2
COc1ccccc1NC(=O)CN1C(=O)COc2ccc(S(=O)(=O)N3CCCCCC3)cc21	-1.2	-4.0	0.5%	-3	-4	0
O=C(N/N=C/c1ccoc1)c1cccc(OC(F)(F)C(F)F)c1	-0.7	-4.8	-0.2%	-30	-3	9
COc1ccc(/C(C)=N/Nc2ccc(C(=O)O)cc2)c(OC)c1	0.0	0.7	1.8%	-5	-5	-7
O=C(N/N=C/c1cccc(OC(=O)c2ccc3c(c2)OCO3)c1)c1cncc(Br)c1	-1.7	-10.0	2.5%	-1	5	-13
COc1cc(NC(=O)C2CCCN2S(=O)(=O)c2ccc3c(c2)CC(C)N3C(C)=O)cc(OC)c1 (stereo not given)	0.5	-0.9	-1.3%	-3	-1	-2
CCSc1nnc(NC(=O)COc2ccc3ccccc3c2)s1	-0.3	0.0	-0.6%	-14	4	7
Cc1ccc(S(=O)(=O)N2CCC(N3CCN(C)CC3)CC2)cc1Cl	1.0	-0.5	0.5%	-6	-6	21
O=C1NC(=Nc2ccccc2)SC1Cc1ccccc1 (stereo not given)	0.9	-2.2	1.6%	-3	-5	6
Cc1cc(O)cc(O)c1C=NCc1ccco1	2.1	0.8	u	-9	-6	-3
Cc1ccn2c(=O)nc(SCC(=O)NC3CCCC3)nc2c1	0.3	1.6	-1.9%	0	-6	-11
Cn1c(=O)[nH]c(=O)c2c1nc(CN1CCN(c3ccc(F)cc3)CC1)n2CCN1CCOCC1	0.2	-1.1	0.1%	-10	10	-12
CC1CC(NC(=O)c2c(O)nc3sccn3c2=O)CC(C)(C)C1 (stereo not given)	0.7	8.1	0.1%	8	5	0
COc1ccc(NC(=O)NC(=O)c2ccccc2)cc1	x	-2.3	1.3%	2	6	x
Cc1c(NC(=O)C2CCCN2S(=O)(=O)c2cccc3nsnc23)cccc1C(=O)O (stereo not given)	0.0	11	-0.2%	-5	14	-5
Fc1ccc(-n2cc(-c3ccccc3)c3c(=S)nc[nH]c32)cc1	0.9	-5.0	6.3%	-5	-27	-20
CCNc1c(NC(=O)C2CCC(C)CC2)c(=O)oc2ccccc12 (stereo not given)	0.4	3.3	0.0%	-4	6	-3
O=C(CN1C(=O)NC2(CCCCC2)C1=O)N1CCOCC1	0.4	-0.6	4.8%	-18	-3	-12
COc1cc(C(=O)Nc2cccc(NC(=O)c3cccs3)c2)cc(OC)c1OC	x	-1.3	5.2%	u	2	x
Cc1ccc(S(=O)(=O)c2nnn(CC(=O)Nc3ccccc3C)c2N)cc1	2.0	x	2.8%	x	x	29
COc1ccccc1NC(=O)C1=C(C)Nc2nc(SCc3cc(C)ccc3C)nn2C1c1ccccc1 (stereo not given)	-0.8	x	9.3%	x	x	-3
Cc1cccc(-n2c(CCN3C(=O)c4ccccc4C3=O)nc3ccccc3c2=O)n1	0.7	-9.1	-0.8%	-13	5	-6
CN(C)c1ccc(-c2nnn(Cc3ccccc3Br)n2)cc1	0.9	-0.7	3.2%[38.3 µM]	-3	-28	2
Cn1c(=NC(=O)c2ccc3c(c2)OCCO3)sc2cc(S(C)(=O)=O)ccc21	-0.8&-0.1	-6.6	8.9%&0.2%	-10	4	6&8
CCOc1cc(C#N)c(NC(=O)Cn2nnc(-c3ccc(C)cc3)n2)cc1OCC	0.6	x	0.0%	x	x	-24
Cn1c(SCC(=O)N2CCCc3ccccc32)nnc1-c1ccco1	-1.0	-3.5	-0.3%	3	8	-5
O=C(c1ccccc1)N(c1ccccc1)C1C=CS(=O)(=O)C1 (stereo not given)	-0.5	-0.7	-1.1%	-3	7	33
O=C(COc1ccc(Cl)cc1)NCCCNC(=O)c1ccccn1	0.0	-4.0	-0.7%	-3	-6	-16
COc1cccc(N=C2C(=O)N3CCCc4cccc2c43)c1	0.9	-3.2	-1.1%	-7	9	2
CN(CCn1ccnc1)Cc1cn(-c2ccccc2)nc1-c1ccc2c(c1)OCO2	-0.2	1.0	0.2%	-1	-4	-7
CN(C)CCNC(=O)c1cccc(-c2cnc3c(NC=O)cc(-c4cc(F)c(F)c(F)c4)cn23)c1	-0.3	3.1	-1.2%	-6	-2	x
CC(C)(C)Nc1nc(NN)nc(NC(C)(C)C)n1	0.0	-9.4	2.4%	-10	-7	-7
O=C(NCCc1ccc(F)cc1)c1cc2ccccc2oc1=O	-0.7	-1.0	3.0%	-8	-6	2
